# CDC25B-CDK2 inh: human CDC25B-CDK2/CyclinA binding inhibition. P30305+P24941. HTRF CDC25B-CDK2/CyclinA binding, anti-His/anti-Flag; active compounds read high. z-score (no concentration beside the values). hit rate 0.72% among 94,000;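 further: score is relative to mean and SD of negative controls; strong numbers were not always called active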
# HIV TAR-Tat: HIV-1 TAR-Tat binding disruption; hit rate 0.6% among 100,000; HIV-1 TAR RNA, Tat peptide displacement FRET; active compounds read high; z-score (test concentration not listed);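 further: score is relative to mean and SD of negative controls; some compounds called inactive have numbers as strong as hits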
# An asterisk follows results filed as active; nt = not tested or not shown.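 How the source made its calls: active means z-score from 3 up in half or more of its runs; inactive means the rest.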
SMILES,CDC25B-CDK2 inh,HIV TAR-Tat
COc1ccc(S(=O)(=O)c2cnc3ccc(F)cc3c2Nc2cccc(OC)c2)cc1,-1.45,-1.4
COc1ccc(-c2noc(-c3nnn(-c4cc(OC)ccc4OC)c3N)n2)cc1,nt,0.65
O=C(O)c1ccc(N2C(=O)CC(N3CCCCC3)C2=O)cc1 (configuration not stated),0.3,-0.66
CCCN(Cc1ccc(Cl)cc1)Cc1cc(=O)c2cc(F)ccc2[nH]1,nt,1.16
CCC1CN(S(=O)(=O)c2ccc3c(c2)NC(=O)CC(=O)N3)c2cc(C)ccc2O1 (configuration not stated),nt,-0.05
Cc1nc(-c2cccs2)c(CC(=O)NC2CC2)s1,0.51,-1
Cc1cc(C)nc(SCC(=O)N2c3ccccc3Sc3ccccc32)n1,0.11,2.2
O=C(c1ccc2nc3c4ccccc4c4ccccc4c3nc2c1)N1CCOCC1,5.48,nt
Cc1nc(N2CCN(c3ccccn3)CC2)c2c(C)c(C(=O)N3CC(C)CC(C)C3)sc2n1 (configuration not stated),-1.78,nt
CC(C)c1ccc(NS(=O)(=O)c2cc3c4c(c2)CCN4C(=O)CC3)cc1,nt,0.87
CC(=O)Nc1ccc(NC(=O)C2CCN(c3ncnc4c3nc3n4CCCCC3)CC2)cn1,nt,-1.7
CCc1[nH]c(=O)c(C#N)c2c1COC(C)(C)C2,-1.84,0.87
O=C(Nc1nc2ccc(F)cc2s1)c1nn(-c2cccc(Cl)c2)ccc1=O,1.25,-0.36
Cc1cccc(N2CC(O)=C(c3nc4ccccc4[nH]3)C2=N)c1C,-0.9,0.95
CN(CCCNC(=O)C1CC2CCCN2C12C(=O)Nc1ccccc12)C1CCCCC1 (configuration not stated),nt,-1.15
Cn1c(=O)oc2cc(S(=O)(=O)CCC(=O)Nc3ccc(F)cc3Cl)ccc21,nt,1.95
O=C(O)CC1(CC(=O)NCc2ccco2)CCCCC1,-2.52,nt
Cn1cnc(S(=O)(=O)N2CCCCC2)c1,nt,1.46
COc1cc(OC(C)=O)c(-c2cc(OC(C)=O)c(OC)cc2OC(C)=O)cc1OC(C)=O,-3.07,nt
O=C(O)c1c2c(nc3ccccc13)CCC2,-0.91,2.25
CC(Oc1ccccc1F)C(=O)Oc1ccc(-n2cnnn2)cc1 (configuration not stated),1.03,-0.69
CCC12CN3CC(CC)(CN(C1)C3c1ccc(O)cc1O)C2=O (configuration not stated),-0.42,-0.43
Cn1c(-c2nonc2NC(=O)c2ccccc2Br)nc2ccccc21,1.5,1.76
Cc1nc(-n2cccc2)sc1C(=O)NC1CC1,-1.24,-1.13
Cn1c(=O)n(C)c2cc(COc3ccc(CNC4CCCCC4)cc3)ccc21,-2.2,-1.38

# 3 records picked at random from the list so far:
SMILES,CDC25B-CDK2 inh,HIV TAR-Tat
O=C(O)c1ccc(N2C(=O)CC(N3CCCCC3)C2=O)cc1 (configuration not stated),0.3,-0.66
O=C(Nc1nc2ccc(F)cc2s1)c1nn(-c2cccc(Cl)c2)ccc1=O,1.25,-0.36
Cn1c(=O)n(C)c2cc(COc3ccc(CNC4CCCCC4)cc3)ccc21,-2.2,-1.38

# Reformatted as tab-separated lines: entries from further up.
smiles	CDC25B-CDK2 inh	HIV TAR-Tat
O=C(O)c1c2c(nc3ccccc13)CCC2	-0.91	2.25
CC(Oc1ccccc1F)C(=O)Oc1ccc(-n2cnnn2)cc1 (configuration not stated)	1.03	-0.69

# More records follow.
SMILES,CDC25B-CDK2 inh,HIV TAR-Tat
Cc1cc(C)cc(NC(=O)c2cc3n(n2)C(C(F)(F)F)CC(c2ccco2)N3)c1 (configuration not stated),-0.06,0.62
CCc1c(C)oc2cc3ccccc3c-2c1C,-0.69,nt
COc1ccc(N2CCN(S(=O)(=O)c3ccc4[nH]c5c(c4c3)CCCCC5)CC2)cc1,nt,1.31
O=C(CC(SCc1ccco1)c1ccc(Cl)cc1)c1cccs1 (configuration not stated),-0.68,-0.53
CC(C)CCNC(=O)C1CCCN(c2ncnc3c2nc2n3CCCCC2)C1 (configuration not stated),nt,-0.5
CC(=O)C(Sc1nnc(C(F)(F)F)n1C)C(C)=O,-1.38,nt
Cc1ccsc1CN(C(=O)C(C)Oc1cc(C)c(Cl)c(C)c1)C1CCS(=O)(=O)C1 (configuration not stated),1.12,1.87
C=CCSc1nnc(NC(=O)c2nc(SCCC)ncc2Cl)s1,-1.38,-0.05
Cc1ccccc1-c1noc(-c2nnn(-c3ccc(F)c(Cl)c3)c2C)n1,nt,1.37
CC1(C)S[C@@H]2[C@H](NC(=O)[C@H](N)c3ccccc3)C(=O)N2[C@H]1C(=O)O,nt,-0.28
CSc1ccc(C2CC(=O)NC3=C2C(=O)CC(c2ccccc2Cl)C3)cc1 (configuration not stated),-1.85,1.82
COc1cccc(OCc2nc3ccc(Cl)cc3[nH]2)c1,-0.4,1.31
Cn1c(CNc2c3c(nc4nncn24)CCC3)nc2ccccc21,-0.79,0.03
CCCSCCCNC(=O)C1CCN(C(=O)c2cc3sccc3n2C)CC1,-0.8,0.37
CC1CCCN(CCCNc2c(-c3ccc(C(C)C)cc3)c(=O)c2=O)C1 (configuration not stated),nt,1.63
CCOc1ccccc1N1CC(O)=C(c2nc3ccccc3s2)C1=N,-1.49,0.73
COC(=O)c1sc(=S)n(-c2ccc(C)cc2)c1N,nt,2.22
CCOC(=O)C1(C(F)(F)F)N=C(N(CC)CC)Oc2c1c(C)nn2-c1ccccc1 (configuration not stated),-1.73,-0.8
Cc1cc(C)n(-c2nc3c(c(=O)n2CC(=O)NC(C)(C)C)CCCC3)n1,nt,1.33
O=C(O)CSC1(SCC(=O)O)CCCCCC1,-1.77,nt
O=C(CCCc1nc(-c2ccco2)no1)NCc1ccco1,-0.63,0.9
COC(=O)c1c(-c2ccc(Br)cc2)csc1NC(=O)CCCC(=O)O,-0.51,nt
COC(=O)c1sccc1S(=O)(=O)NNC(=O)c1ccc([N+](=O)[O-])cc1,0.23,nt
Cc1noc2ncnc(NC(C)(C)CCO)c12,nt,-0.06
O=C1CCSc2ccc(S(=O)(=O)NCCc3cccs3)cc2N1,nt,0.88

# Entries of single compounds, looked up by structure:
# COc1cccc(OCc2nc3ccc(Cl)cc3[nH]2)c1 as listed: CDC25B-CDK2 inh: -0.4; HIV TAR-Tat: 1.31
# Cc1ccccc1-c1noc(-c2nnn(-c3ccc(F)c(Cl)c3)c2C)n1 as listed: CDC25B-CDK2 inh: nt; HIV TAR-Tat: 1.37

# Further entries.
SMILES,CDC25B-CDK2 inh,HIV TAR-Tat
COc1ccc(CCN2C(=O)c3[nH]nc(-c4ccccc4O)c3C2c2cccc(O)c2)cc1 (configuration not stated),-0.01,0.24
CCOc1ccc2ccccc2c1CNCCSc1nnnn1C,-0.92,1.33
COc1ccc(-c2nc3cc(N)ccc3o2)cc1Cl,0.13,1.57
N/C(CS(=O)(=O)c1ccc(F)cc1)=N\OC(=O)Nc1cc(Cl)cc(Cl)c1,-0.91,nt
CCc1ccc(S(=O)(=O)c2nnn3c2nc(NCCCOC)c2sccc23)cc1,nt,-1.07
COCCN1C(=O)c2[nH]nc(-c3ccccc3O)c2C1c1ccccc1F (configuration not stated),-0.06,1.59
CCc1nc(NCCN2CCOCC2)c(C#N)c2c1COC(C)(C)C2,-1.68,nt
Cc1oc(-c2cccc(Br)c2)nc1Cn1cnc2onc(-c3ccc(Cl)cc3)c2c1=O,nt,1.03
Cc1ncc(-c2ccc(S(=O)(=O)Nc3ccc(Br)cc3F)cc2)o1,nt,0.9
COc1cccc(-c2nc3c(c(=O)[nH]2)Cc2cccc(OC)c2O3)c1O,0.53,11.6*
Clc1ccc(Cc2nnc3sc(-c4ccccc4)nn23)cc1,-0.4,-0.08
COC(=O)c1sc2ccccc2c1S(=O)(=O)N1CC=C(c2ccccc2)CC1,nt,-1.02
O=C(Nc1c(C(=O)c2ccc(F)cc2)oc2ccccc12)c1ccco1,-0.77,-0.36
CCn1c(C(=O)N2CCC(C(=O)NCCOC)CC2)cc2sccc21,-3.11,nt
O=[N+]([O-])c1ccc(C=NCCSc2ccc(Cl)cc2)s1,-0.78,nt
O=C(NCC1CCCO1)c1cc(-c2ccncc2)n[nH]1 (configuration not stated),nt,2.47
C=CCSc1nc2c(c(=O)[nH]1)C(c1ccc(F)cc1F)CC(=O)N2 (configuration not stated),1.07,0.87
CC(C)c1ccc(C2/C(=C(\O)c3ccc(F)cc3)C(=O)C(=O)N2CCCN2CCOCC2)cc1 (configuration not stated),-1.3,-0.28
COc1cccc(CN2CCN(C(=O)c3c(OC)cccc3OC)CC2)c1,-1.7,nt
O=C1Nc2ccccc2Oc2cc(Cl)c(S(=O)(=O)N3CCc4ccccc4C3)cc21,nt,1.62
CC1Cc2cc(S(=O)(=O)N3CCC(C(=O)NCc4cccs4)CC3)ccc2N1C(=O)C1CC1 (configuration not stated),nt,0.57
Cc1ccc(C)c(C(=O)CSc2ncn[nH]2)c1,0.95,0.95
CC1(C)Cc2c(c(=O)n(-c3ccccc3)c3ncnc(N)c23)CO1,-0.17,nt
C=CCN(Cc1nc(-c2ccc(OC)c(OC)c2)no1)S(=O)(=O)c1ccc(C)cc1,-1.29,2.1
Cc1ccc(N2CCN(c3cc(C)nc4nc(C)nn34)CC2)c(C)c1,-2.59,-0.59

# No new results follow: an excerpt of the list.
SMILES,CDC25B-CDK2 inh,HIV TAR-Tat
Cc1ncc(-c2ccc(S(=O)(=O)Nc3ccc(Br)cc3F)cc2)o1,nt,0.9
COc1cccc(-c2nc3c(c(=O)[nH]2)Cc2cccc(OC)c2O3)c1O,0.53,11.6*
Clc1ccc(Cc2nnc3sc(-c4ccccc4)nn23)cc1,-0.4,-0.08

# Going on with the list.
SMILES,CDC25B-CDK2 inh,HIV TAR-Tat
CC1(C)OC(=O)C(=CNc2ccc(F)c(Cl)c2)C(=O)O1,-1.55,nt
CCN(CC)CCCNC(=O)C(C)N1C(=O)CCn2nc(C)cc21 (configuration not stated),nt,-0.6
CC1CCCN(S(=O)(=O)c2ccc(NC(=O)c3nn(-c4ccc(Cl)cc4)ccc3=O)cc2)C1 (configuration not stated),-1.47,1.45
Cc1ccc(C)c(Nc2ncnc3onc(C)c23)c1,nt,-0.96
Cc1ccc(-n2ncc3c(N4CCN(CCO)CC4)ncnc32)cc1,nt,1.38
CC(C)S(=O)(=O)c1csc(NC(=O)N=S(C)(=O)c2ccc(Cl)cc2)c1Cl (configuration not stated),-1.92,nt
COc1ccc(N)cc1-n1c(C)ccc1C,1.93,10.4*
CC1=C(c2ccccc2)S(=O)(=O)N=C1Nc1ccc(F)cc1C,-2.18,-0.97
Cc1ccc(NS(=O)(=O)c2cn(C)cn2)cc1,nt,0.96
Fc1ccc(CNCc2ccncc2)cc1,-0.93,-0.57
CNc1ncnc(NNC(=O)Nc2ccc(OC(F)(F)F)cc2)c1[N+](=O)[O-],-1.18,nt
O=C(Cn1cnc(S(=O)(=O)N2CCCCC2)c1)NCc1ccco1,nt,-0.07
CN(C)c1ccc(C2CC(=O)C=C(NCc3cccs3)C2)cc1 (configuration not stated),-4.22,nt
Brc1ccc(CSc2nn3cnnc3s2)cc1,-0.22,-0.04
CCc1ccc(N2C(=O)N(Cc3ccc(F)cc3Cl)C3CS(=O)(=O)CC32)cc1 (configuration not stated),-0.58,-0.32
O=C(NCCN1CCN(c2ccccc2F)CC1)c1cc2c(s1)-c1ccccc1SC2,-0.02,0.13
CS(=O)(=O)/C(C#N)=C/c1ccc(-c2cccs2)s1,-1.8,nt
Cc1ccc(C)c(Oc2c(C(F)(F)F)oc3c(CN4CCOCC4)c(O)ccc3c2=O)c1,-2.26,1.2
CN1C(=O)CCc2cc(NS(=O)(=O)c3ccc4c(c3)CCCC4)ccc21,nt,1.57
Clc1ccc(-c2noc3ncnc(Nc4ccccc4)c23)cc1,nt,0.68
C=CCOc1ccc(Br)cc1C1C(C#N)=C(N)Oc2cc(O)ccc21 (configuration not stated),-2.77,nt
Cc1ccc(-n2ncc3c(Nc4ccc5c(c4)OCCO5)ncnc32)cc1C,nt,0.19
CCN(Cc1ccccc1)C(=O)C1CC2CCCN2C12C(=O)Nc1ccccc12 (configuration not stated),nt,0.45
CN(Cc1ccccc1)C(=O)Cn1ncc2ccsc2c1=O,-0.43,-1.07
CC1(C)CC2(CC(C)(C)OC2=O)C(=O)O1,-0.64,nt
# More entries follow.
SMILES,CDC25B-CDK2 inh,HIV TAR-Tat
O=C(O)c1cc(NC(=O)c2cccc(C(=O)Nc3cc(C(=O)O)cc(C(=O)O)c3)c2)cc(C(=O)O)c1,1.39,nt
Cc1ccc(CNC(=O)C(C)SC2=Nc3ccccc3C3=NC(C(C)C)C(=O)N23)cc1 (configuration not stated),nt,1.3
Fc1cccc(Cl)c1-c1nnc2ccc(C(F)(F)F)cn12,-1.09,-0.11
Fc1ccc(-c2ccc(CNCc3ccccn3)o2)cc1Cl,nt,1.65
COc1ccc2c(c1)CCC1C2CC[C@@]2(C)C1CC[C@@H]2NCCCCCCN1C(=O)CCC1=O (some centres not stated),-1.24,nt
CS(=O)(=O)c1ccccc1S(=O)(=O)N1CCN(c2nc3ccccc3s2)CC1,-2.38,3.05
CCC(C)NC(=O)CCC(=O)N1CCSc2ccccc21 (configuration not stated),nt,1.18
Cc1c2c(c(C)n1C)C(C(=O)NC1CCCCC1)N(c1ccc(Cl)cc1)C2=O (configuration not stated),nt,0.11
CCS(=O)(=O)c1ncc(Cl)c(C(=O)Nc2nnc(C)s2)n1,-1.01,1.29
COC(=O)c1ccccc1NC(=O)c1cc2nc(-c3cccs3)cc(C(F)(F)F)n2n1,-2.07,nt
Cc1[nH]c(=O)[nH]c(=O)c1S(=O)(=O)Nc1cccc(-c2ccno2)c1,nt,1.34
Cc1ccc(C(NC(=O)C(C)C)c2ccc3cccnc3c2O)cc1 (configuration not stated),0.14,0.64
O=C(CCN1C(=O)/C(=C/c2ccc3c(c2)OCO3)SC1=S)Nc1cccc(C(=O)O)c1,-2.86,nt
CCOC(=O)c1c(C)csc1NC(=O)c1cccs1,-2.14,nt
O=C(CCC(=O)N1CCOc2ccccc21)NCCCN1CCC(N2CCCCC2)CC1,-3.03,-0.18
CSc1c2c(nc3cc(-c4cccs4)nn13)CC(C)(C)CC2=O,-1.71,nt
CCOc1cc(C(Nc2ccccn2)c2ccc3ccc(C)nc3c2O)ccc1OC (configuration not stated),1.68,1.68
